supercomplex: modulators of mitochondrial supercomplex assembly, cell-based, luminescence, Hoechst nuclei count (AID 1645838); actives 5% (n = 2,000); z-score at 11 µM unless noted; Cells, luminescence/Hoechst cell count ratio, supercomplex reporter; active compounds read high;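 active means mean z-score of two plates above 1.96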;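 further: control cybrid cells; higher means more mitochondrial supercomplex formation; U2OS-based cells read after two days; 0 = mean of sample wells on the plate; doses worked out from stocks diluted about 900-fold with the highest of each compound shown; many of its hits are not listed in these tables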
supercomplex cell count: also measured in supercomplex; calls as there; cell count; measured here: cell number, Hoechst nuclei count;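 nuclei per well as mean of two plates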
Numbers without * were called inactive; i = inactive; / = no result given. An excerpt, so the mix of outcomes need not match the whole.

#1 CC1CC2OC2C=CC=CC(=O)Cc2c(Cl)c(O)cc(O)c2C(=O)O1 (stereo unspecified)
#2 O=C(O)Cn1c(C(=O)Nc2nc(-c3ccccc3Cl)cs2)cc2ccccc21
#3 NC(N)=NCCN1CCCCCCC1
#4 O=C(Nc1nc2ccccc2n1CCN1CCOCC1)c1cccc([N+](=O)[O-])c1
#5 Clc1ccc(CCCOCCCN2CCCCC2)cc1

assay / entry,1,2,3,4,5
supercomplex cell count,/,6610,5620,4156,5810
supercomplex,i,0.051,-0.69,-0.21,-0.48

#6 Cc1cc(=O)oc2c(C=O)c(O)ccc12
#7 CC(C)c1ccc(NC(=O)Cn2cnc3c2c(=O)n(C)c(=O)n3C)cc1
#8 CCN(C)C(=O)Oc1cccc(C(C)N(C)C)c1 (stereo unspecified)
#9 CC(C)(CO)c1cc2cc(NC(=O)C3(c4ccc5c(c4)OC(F)(F)O5)CC3)c(F)cc2n1CC(O)CO (stereo unspecified)
#10 CCN(CC=CC#CC(C)(C)C)Cc1cccc(OCc2cc(-c3ccsc3)cs2)c1

assay / entry,6,7,8,9,10
supercomplex cell count,6858,6301,6230,5684,5816
supercomplex,-0.48,0.029,-0.64,-0.5,-0.59

From entry 9 as far as 10, copied from above:
#9 CC(C)(CO)c1cc2cc(NC(=O)C3(c4ccc5c(c4)OC(F)(F)O5)CC3)c(F)cc2n1CC(O)CO (stereo unspecified)
#10 CCN(CC=CC#CC(C)(C)C)Cc1cccc(OCc2cc(-c3ccsc3)cs2)c1

assay / entry,9,10
supercomplex cell count,5684,5816
supercomplex,-0.5,-0.59

Next section.
#11 COc1cc(N2CCC(C(N)=O)CC2)ccc1Nc1nc(N)c(Cl)c(Nc2ccccc2S(=O)(=O)C(C)C)n1
#12 CCCS(=O)(=O)Nc1ccc(F)c(C(=O)c2c[nH]c3ncc(Cl)cc23)c1F
#13 O=C1c2cccc3c2[C@H](CCC3)CN1C1CN2CCC1CC2 (stereo partly specified)
#14 Cc1ccc(C(=O)Nc2cccc(C(F)(F)F)c2)cc1Nc1nc(-c2cccnc2)nc2c1cnn2C
#15 Cc1nc2ccccc2n1S(=O)(=O)c1ccc(F)cc1

assay / entry,11,12,13,14,15
supercomplex cell count,4760,4742,4386,/,5274
supercomplex,-0.44,-0.44,-0.17,i,0.38

Looked up above:
no. 15 in supercomplex shows 0.38
no. 13 in supercomplex cell count shows 4386
no. 11 in supercomplex shows -0.44

(listing goes on)
#16 COc1cc2ccc(=O)oc2c(OC)c1OC
#17 O=C(O)Cc1c(C(=O)O)n(Cc2cccc3ccccc23)c2ccc(F)cc12
#18 NCCCCCCCN=C(N)N
#19 CC(C)C(=O)c1cn(CC(=O)COc2ccc(Oc3ccccc3)cc2)c2ccc(C(=O)O)cc12
#20 CCCN(CCC)c1cc(C)nc2c(-c3cnc(N(C)C)cc3C)c(C)nn12
#21 CC(=O)OCC(=O)[C@@]1(O)CC[C@@H]2[C@@H]3CCC4=CC(=O)C=C[C@]4(C)[C@@]3(Cl)C(Cl)C[C@@]21C (stereo partly specified)
#22 Cn1cnc2c(F)c(Nc3ccc(Br)cc3Cl)c(C(=O)NOCCO)cc21
#23 CN(CCOc1ccc(-c2ccc3c(c2)OCO3)cc1C(C)(C)C)CC(=O)O

assay / entry,16,17,18,19,20,21,22,23
supercomplex cell count,5040,6802,4617,5994,6663,4884,/,5688
supercomplex,-0.065,0.21,0.16,-0.3,-1.8,1.5,i,-0.43

Laid out differently: entries from further up
[18] NCCCCCCCN=C(N)N
  supercomplex cell count = 4617 | supercomplex = 0.16
[16] COc1cc2ccc(=O)oc2c(OC)c1OC
  supercomplex cell count = 5040 | supercomplex = -0.065
[17] O=C(O)Cc1c(C(=O)O)n(Cc2cccc3ccccc23)c2ccc(F)cc12
  supercomplex cell count = 6802 | supercomplex = 0.21

Screening data (PubChem BioAssay)
